T cruzi repl = inhibitors of intracellular T. cruzi growth, primary screen, luminescence, NIH3T3 host cells. AID 1885, 2009. actives 1.4% (n = 300,000). T. cruzi beta-gal in NIH3T3, 90 h. inhibition, % (concentration not given with the values);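 active = mean inhibition across valid replicates above about 55%, limit read from the data; inconclusive = mean below that limit but half or more replicates reach it; inactive = mean below it, under half of replicates reach it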;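 also: signal also drops with host cell toxicity which is not excluded here; 0% = plate median of DMSO wells and 100% = zero luminescence signal; higher percent means less beta-gal luminescence so fewer parasites; stock transfer was 50 nL into about 50 µL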
FGF22 binding = binders of human FGF22 protein, primary screen, FGF22 synaptogenesis inhibitor project, biophysical, thermal shift, single point. recombinant FGF22 thermal shift, SYPRO orange fluorescence; percent of sucrose octasulfate shift, DMSO zero. calls only at 9.99 µM. actives 1.5% (n = 340,000). AID 651658, 2012;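 active = melting point raised past a set limit in the mean and every replicate; inconclusive = no clear call; three in four hits are not shown here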
Target sequence (Q9HCT0 whole entry, looked up): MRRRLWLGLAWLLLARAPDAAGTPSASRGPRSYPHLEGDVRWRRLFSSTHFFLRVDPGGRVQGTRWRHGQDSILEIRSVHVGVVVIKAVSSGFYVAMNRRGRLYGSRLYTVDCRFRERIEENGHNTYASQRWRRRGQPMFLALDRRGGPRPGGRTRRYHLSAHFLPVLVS
RanGTP-Impb inh = inhibitors of RanGTP-importin-beta interaction, primary screen, biochemical, FRET, CFP-Ran, YFP-importin-beta, homogeneous. Ran GTPase (GTP-bound) - importin-beta complex. cell-free CFP-Ran/YFP-importin-beta FRET ratio. actives 1.1% (n = 300,000). inhibition, % (concentration not given with the values);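 active = most replicates above 15%; inconclusive = exactly half above 15%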;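 also: 0% = DMSO wells and 100% = Ran loaded with GDP instead of GTP; wells of about 40 µL received 100 nL stock; the first replicate is given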
Calb FLC = C. albicans growth inhibition with fluconazole, primary screen, CaCi-2 strain, Alamar Blue fluorescence. AID 1979, 2009. actives 0.57% (n = 300,000). C. albicans CaCi-2 (fluconazole-resistant clinical isolate) + fluconazole, 48 h. growth inhibition, % (test concentration not listed);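 active = most replicates above 75%; inconclusive = exactly half above 75%; inactive = most below 75%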;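 also: all wells also contain fluconazole at 8 µg/ml as a sub-toxic cotreatment; 0% = median of DMSO wells and 100% = median of geldanamycin control wells; wells of about 8 µL received 7.5 nL stock; the first replicate is given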
Ecoli rRNA inh = reduced GFP signal of wild-type E. coli, primary screen, bacterial rRNA inhibitor project, GFP/RFP fluorescence, OD600, single point; E. coli WT GFP vs humanized-ribosome RFP mutants, 24 h; active compounds read low; DMSO median 0, no signal -100; GFP signal change (wild-type ribosome), % (no concentration beside the values); actives 1.6% (n = 350,000);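 active = significant combined selectivity score with lowered wild-type GFP, culture density cut under 30%, mutant RFP and density less affected; inactive = any of these conditions unmet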; also: one replicate is shown; some compounds called inactive have numbers as strong as hits
MLL AF4-AF9 inh = inhibitors of AF4 peptide binding to AF9, primary screen, biochemical, AlphaScreen, biotin-AF4 peptide, FLAG-AF9, single point; inhibition, % at 10 µM; actives 0.47% (n = 350,000); AID 651704, 2012;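 active = every replicate reaching a set inhibition limit, whatever the replicate mean, cut at about 25% in these data; inconclusive = mean inhibition reaches that limit but some replicates miss it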;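 also: 0% = plate neutral control median and 100% = total signal loss; the record names both 10 and 1 µM as test concentration; the first replicate is given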
Target sequence (P42568 whole entry, looked up): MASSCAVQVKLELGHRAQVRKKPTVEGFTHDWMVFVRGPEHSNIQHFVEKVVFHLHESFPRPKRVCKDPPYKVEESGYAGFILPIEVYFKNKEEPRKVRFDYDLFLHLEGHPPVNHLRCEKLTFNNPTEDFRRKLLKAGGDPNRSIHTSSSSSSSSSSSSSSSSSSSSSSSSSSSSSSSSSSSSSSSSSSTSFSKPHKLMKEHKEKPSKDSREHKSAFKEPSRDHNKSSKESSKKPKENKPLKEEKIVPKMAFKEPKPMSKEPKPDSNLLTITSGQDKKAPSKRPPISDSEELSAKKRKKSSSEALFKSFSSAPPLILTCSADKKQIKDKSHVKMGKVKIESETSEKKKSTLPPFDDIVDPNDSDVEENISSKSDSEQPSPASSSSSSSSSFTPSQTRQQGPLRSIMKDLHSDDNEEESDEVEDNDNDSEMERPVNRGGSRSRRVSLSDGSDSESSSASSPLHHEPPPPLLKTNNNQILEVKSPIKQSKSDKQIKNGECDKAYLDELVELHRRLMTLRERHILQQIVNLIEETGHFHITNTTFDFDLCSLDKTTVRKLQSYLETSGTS
Beta apoptosis = inhibitors of cytokine-induced beta cell apoptosis, primary screen, luminescence. AID 435005, 2010. INS-1E cytokine-induced death, ATP luminescence, 48 h; percent of positive-control rescue, neutral wells zero. protection from apoptosis, % (test concentration not listed). actives 0.8% (n = 300,000);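 active = all replicates at 75% or more, or half of them and the mean; inconclusive = half reach 75% but not the mean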;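 also: 0% = cytokine-treated negative control wells and 100% = positive control rescue; higher means more ATP so stronger rescue from cytokine killing; wells of about 40 µL received 100 nL stock; the first replicate is given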
ALR H2O2 inh = inhibitors of human ALR sulfhydryl oxidase, primary screen, biochemical, H2O2 detection, HRP-luminol luminescence, single point; FAD-linked sulfhydryl oxidase ALR (Homo sapiens), P55789; purified ALR, DTT oxidation; inhibition, % (no concentration beside the values); actives 3.8% (n = 290,000); AID 485317, 2010;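 active = mean and each replicate at 75% or more; inconclusive = only one of the two met; inactive = neither met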;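 also: stock transfer was 7.5 nL into about 7.5 µL; 0% = neutral wells and 100% = wells with inactivated enzyme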
Target sequence (P55789 whole entry, looked up): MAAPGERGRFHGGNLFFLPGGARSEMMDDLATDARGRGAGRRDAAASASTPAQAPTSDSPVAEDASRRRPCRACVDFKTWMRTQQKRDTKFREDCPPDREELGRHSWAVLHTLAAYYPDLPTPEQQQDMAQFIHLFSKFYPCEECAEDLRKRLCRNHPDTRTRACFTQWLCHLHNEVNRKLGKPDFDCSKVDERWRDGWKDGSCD
Ecoli rRNA inh OD600 = second read-out of Ecoli rRNA inh, no call of its own (marks repeat the call); OD600 change, %; measured here: OD600 growth;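 optical density of the mix in the first replicate; 0 = DMSO median and -100 = no signal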
Ecoli rRNA inh RFP = second read-out of Ecoli rRNA inh, no call of its own (marks repeat the call); RFP signal change, %; measured here: RFP humanized mutant strains;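 first replicate; 0 = DMSO median and -100 = no signal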
The depositor's hits bear a star; i = inactive; u = inconclusive; x = not tested or not shown.

SMILES	T cruzi repl	FGF22 binding	RanGTP-Impb inh	Calb FLC	Ecoli rRNA inh	Ecoli rRNA inh OD600	Ecoli rRNA inh RFP	MLL AF4-AF9 inh	Beta apoptosis	ALR H2O2 inh
O=C(CN1C(=O)c2cccnc2Oc2ccc(Cl)cc21)NC1CCCCC1	-7	x	-1.9	-9	-3	-14	-2.1	-5.3	-4	-1
CCc1ccc(NCCC(=O)c2ccc(Br)cc2)cc1	28	i	0.6	-12	10	15	-0.8	5.8	-17	2
CSc1nc2cc(C)nn2c(-c2ccccc2Cl)c1C#N	-7	i	-2.5	14	2	9	-0.9	u	-2	-4
Cc1ccc2c(C(=O)CN3CCCC(C)C3)c(C)[nH]c2c1 (stereo not drawn)	7	i	-2.6	-7	6	7	-1.2	1.3	-3	-2
O=C(O)C1CC(=O)N(c2ccc(OCc3ccc(Br)cc3)cc2)C1 (stereo not drawn)	-9	x	-3.5	7	-20	-23	-12	-5.8	-3	5
Nc1ccc(C(=O)Oc2ccc([N+](=O)[O-])cc2)c(O)c1	0	x	-5.7	1	x	x	x	x	-1	5
O=C(NCCCc1ccccc1)c1cccc(Br)c1	16	i	1.5	-29	-35	-38	-1.8	15	1	-1
O=C(O)COc1ccccc1/C=N/NC(=O)CNC(=O)c1ccc(F)cc1	-11	i	2.9	4	23	4	1.4	-5.0	-3	-15
CCn1c(/C=C\c2ccccc2C)nc2ccccc2c1=O	15	i	2.4	u	-18	-55	-4.8	31*	6	-6
CCOC(=O)N1CCN(c2c(N3CCC(N4CCCCC4)CC3)c(=O)c2=O)CC1	-6	i	0.4	3	4	11	0.4	-8.0	3	-2
CCN(CC)CCNC(=O)Cn1cnc2sc(C)c(S(=O)(=O)N3CCOCC3)c2c1=O	-1	x	-2.4	-6	x	x	x	x	-2	x
O=C(CSc1nnc(CSc2nc3ccccc3s2)o1)NC1CCCCC1	7	x	2.0	-17	x	x	x	x	-7	-8
Cc1ccc(CS(=O)Cc2ccc(C(=O)NC3CCCCCC3)o2)cc1 (stereo not drawn)	-7	i	1.1	35	-6	-10	12	0.7	-1	2
CNNCc1ccc(C(=O)NC(C)C)cc1	-19	i	0.1	x	12	12	-1.6	-2.2	-1	-12
Cc1cc(=O)n2nc(N3CCC(C(=O)NCc4ccc(Cl)cc4)CC3)sc2n1	24	i	0.3	4	-5	-4	1.0	-0.1	-10	2
Cc1cc(OCCCCCNCCO)ccc1Cl	26	x	7.9	-14	x	x	x	x	-6	15
COC(=O)[C@@H](Cc1ccccc1)NC(=O)NCCc1ccccc1	-4	i	-1.6	-1	10	10	0.3	-0.6	1	-18
CCOC(=O)N1CCN(C(=O)CSCc2ccccc2C)CC1	-31	x	-0.3	-15	x	x	x	x	-5	4
Cc1ccccc1NC1=C/C(=N\S(=O)(=O)c2cccs2)c2ccccc2C1=O	57*	x	-2.7	34	x	x	x	x	98*	-51
O=C(CCC1CCCC1)N1CCC(N2CCCCCC2)CC1	-5	i	3.1	-9	x	x	x	2.7	1	5
O=C(CSc1ncccn1)NC(=O)Nc1ccc2c(c1)OCCO2	0	i	x	-6	-15	-16	4.7	-0.9	-6	-11
COc1ccccc1CNC(=O)c1ccc(CS(=O)(=O)c2ccc(C)cc2)o1	-6	i	2.6	7	-10	-6	1.3	-4.1	2	1
CC(=O)Nc1c(O)nc(SCC(=O)Nc2cccc(C)c2)[nH]c1=O	0	i	0.3	-5	16	11	3.4	-56	-3	98*
COc1ccc(CC(=O)NC(C)c2nnc(SCCC(=O)Nc3ccccc3)n2C)cc1 (stereo not drawn)	4	i	-2.8	-4	6	0	-0.4	0.9	-4	x
O=C(NCc1ccco1)c1ccc2nc3sc4c(c3c(=O)n2c1)CCCC4	3	x	62*	29	x	x	x	x	-3	-10

Continued:
SMILES	T cruzi repl	FGF22 binding	RanGTP-Impb inh	Calb FLC	Ecoli rRNA inh	Ecoli rRNA inh OD600	Ecoli rRNA inh RFP	MLL AF4-AF9 inh	Beta apoptosis	ALR H2O2 inh
Cc1cccc(NC(=O)NNC(=O)c2c(Cl)c(C)nn2C)c1	3	x	0.0	0	x	x	x	x	0	59
Cc1ccc(C)c(NC(=O)CSc2nnc(CSc3nc(C)cc(C)n3)n2Cc2ccco2)c1	-3	x	2.0	11	x	x	x	x	-2	-8
FC(F)(F)c1ccc(N/N=C/c2cccnc2)nc1	1	i	3.7	2	3	5	-1.0	0.1	2	-3
CCOC(=O)c1sc(N)c(C#N)c1CSc1nnc(C2CCCCC2)n1N	4	x	-0.5	-13	x	x	x	x	2	x
CCn1c(=O)c(C(=O)NCc2ccc(OC)cc2)c(O)c2ccccc21	-5	x	2.0	-2	x	x	x	x	-2	2
COc1ccc(NC(=O)CSc2c3c(nc4cc(Cl)ccc24)CCCC3)cc1OC	1	i	2.7	33	0	-12	-1.8	-1.2	-7	99*
CCCCn1c(N)c(N(CC)C(=O)c2cnc(C)cn2)c(=O)[nH]c1=O	x	i	x	x	10	16	-2.7	-4.8	2	-24
c1ccc(CNCC2COc3ccccc3O2)cc1 (stereo not drawn)	-4	x	-2.2	-3	x	x	x	x	1	-7
O=C(NCCN1CCc2ccccc2C1)Nc1ccc([N+](=O)[O-])cc1	1	i	1.6	2	-4	-6	6.2	-29	9	x
CCC(C)NC(=S)NNC(=O)c1ccncc1 (stereo not drawn)	-19	i	0.2	3	11	11	-2.1	-1.2	0	14
Cc1cccc(NC(=O)CNC(=O)CSc2nnc(C(F)(F)F)n2C)c1C	x	i	x	x	-7	-5	-4.9	-0.5	1	4
COC(=O)N1C/C=C\C(c2ccc(OC)cc2)N(Cc2ccc(F)cc2)C(=O)C1 (stereo not drawn)	2	i	0.7	-2	2	6	-7.5	1.3	-9	x
c1ccc2c(CN3CCSCC3)cccc2c1	-7	i	-0.7	3	7	21	-2.4	-2.3	-2	-1
COC(=O)c1ccc[n+](CCc2c[nH]c3ccccc23)c1	-14	i	u	3	3	4	-5.1	-2.5	-2	-3
CCn1c(N2CCN(C(=O)NC3CCCCC3)CC2)nc2ccccc21	7	x	1.2	8	x	x	x	x	-5	2
Cc1cc(NC(=O)c2ccc3c(c2)OCCO3)no1	-4	x	u	7	x	x	x	x	6	-4
Cc1sc2c(c1C)C(=O)NC(c1ccccc1F)N2 (stereo not drawn)	-9	i	24*	-1	-7	3	7.3	-2.6	-10	29
C=C(C)c1cccc(C(C)(C)NC(=O)N2CCN(c3ccccc3OC)CC2)c1	13	i	-4.8	-4	8	-3	-9.1	9.3	4	3
Cn1c(=O)[nH]c(=O)c2c1nc(Br)n2CCCO	0	x	-0.6	1	x	x	x	-3.8	-7	-5
CS(=O)(=O)N1CCC(C(=O)Nc2cccc([N+](=O)[O-])c2)CC1	-5	x	-3.8	-4	7	10	-0.7	0.2	-4	-3
O=C1NC(c2ccc(Cl)cc2)Nc2ccccc21 (stereo not drawn)	-18	i	-1.6	-14	16	6	1.4	-0.7	-1	-35
CCc1ccc(C(=O)NNc2cc(Cl)cc(Cl)c2)cc1	x	i	1.0	-2	x	x	x	-0.8	1	-2
Cc1cccc(NC(=O)CN(C)CC(=O)NC(c2ccccc2)c2ccccc2)c1C	x	i	x	x	-12	-53	15	4.1	-1	5
COc1ccccc1/C=C/C(=O)OCc1nc2ccccc2c(=O)[nH]1	-15	i	u	-1	-17	4	0.7	-5.7	-2	-4
COc1ccc(NC(=S)N2CCC(N(C)CCN3CCOCC3)CC2)cc1	31	i	1.6	-7	3	5	-1.6	1.5	2	1

The listing continues.
SMILES	T cruzi repl	FGF22 binding	RanGTP-Impb inh	Calb FLC	Ecoli rRNA inh	Ecoli rRNA inh OD600	Ecoli rRNA inh RFP	MLL AF4-AF9 inh	Beta apoptosis	ALR H2O2 inh
COc1ccc(S(=O)(=O)N2CCC(C(N)=O)(N3CCCCC3)CC2)cc1OC	-21	i	0.7	8	-1	5	-3.0	-1.4	-3	-4
COc1ccc(-n2c(Cc3cccn3C)nnc2SCC(=O)Nc2ccccc2F)cc1	0	x	-1.3	12	1	7	1.5	8.0	-6	22
Cc1ccc(C(=O)Nc2ccc(N3CCN(S(C)(=O)=O)CC3)cc2)cc1C	4	i	4.5	14	21	18	4.1	-1.0	x	-1
C#CCOCCOCCOCCNc1nc(N2CCOCC2)nc(N2CCN(C(=O)[C@H](Cc3cc4ccccc4[nH]3)n3cc([C@@H](N)Cc4ccc(O)cc4)nn3)CC2)n1	-24	i	2.4	3	2	-1	2.0	7.9	4	-2
COc1ccccc1S(=O)(=O)Nc1cc(S(=O)(=O)N2CCCCC2)ccc1N1CCOCC1	26	i	2.1	-13	-28*	-16*	0.7*	1.4	1	3
O=C(NCc1ccccc1Cl)c1ccccc1Oc1ccccc1	20	x	0.6	-4	x	x	x	x	-9	2
Cc1cc(NC(=O)c2ccco2)ncc1NC(=O)CCc1ccccc1	-14	x	-4.4	-11	x	x	x	x	-1	-1
CCc1cccc(CC)c1NC(=S)NCC(c1cccnc1)N1CCOCC1 (stereo not drawn)	7	i	0.2	-6	-2	-3	16	-1.8	-3	x
O=C(N=C1SC2CS(=O)(=O)CC2N1Cc1ccccc1)C1CCCO1 (stereo not drawn)	-6	i	5.7	4	5	4	-0.7	1.5	0	-5
O=C(OCc1nnc(-c2ccccc2)o1)c1ccc([N+](=O)[O-])o1	-6	i	5.6	21	5	0	-3.1	-0.8	-7	-21
CCc1ccc(NC(=O)C2CCN(c3c(N4CCCC4)c(=O)c3=O)CC2)cc1	-2	i	-3.0	-2	10	4	3.1	-0.1	-4	15
O=C(COC(=O)C1CC(=O)N(c2ccc3c(c2)OCCO3)C1)NC1CCCc2ccccc21 (stereo not drawn)	-5	x	3.3	-2	x	x	x	x	0	-18
COc1ccccc1-c1noc(CCC(=O)Nc2cccc(C)c2)n1	2	x	1.5	3	x	x	x	x	-3	4
CC(=O)Nc1coc2ccc(Br)cc12	5	x	-1.7	-7	x	x	x	x	4	-4
COC(=O)c1c(NC(NC(=O)c2ccccc2)(C(F)(F)F)C(F)(F)F)sc2c1CCN(C)C2	-1	x	48*	-20	x	x	x	x	-4	x
O=C(CSc1cn(Cc2ccccc2)c2ccccc12)N1CCOCC1	3	i	1.7	11	-3	-22	-1.9	3.2	-6	x
CC(=O)c1ccc(NC(=O)C(C)OC(=O)COc2ccc(C#N)cc2)cc1 (stereo not drawn)	-7	x	-0.5	6	x	x	x	x	4	-4
OC1CCCN(Cc2nc(Cc3ccccc3Cl)no2)C1 (stereo not drawn)	3	i	3.5	46	-4	3	1.2	0.8	-7	x
CN(C)c1nc(Nc2ccccc2)nc(N(C)C)n1	-5	x	-3.2	-21	x	x	x	x	7	11

A portion of the library; count on the stated rates, not on these rows.
